LASV entry inh = Lassa virus entry inhibition; actives 1.2% (n = 300,000); Potency, µM (top dose mostly 37.9 µM), for the others: at the top dose activity change, negative = inhibition, most hits filed as inhibitors; Lassa virus pseudotype entry inhibition, cell reporter; control for the full effect not named in the record; active means well fitted inhibition curve with a large enough effect; inconclusive means small, poorly fitted or top-dose-only effect, or effect the other way; inactive means flat fitted curve, though single readings scatter; tested in HEK293 cells; also: % is scaled to controls: 0 for no effect and ±100 for the full control effect; nearly all actives have a fitted effect of over 50% in size; luciferase read-out
Cruzain noTriton = inhibitors of Trypanosoma cruzi cruzain without detergent; purified cruzain, Z-FR-AMC fluorescence, no detergent; Potency, µM, for inactives: max response, negative = inhibition, hits mostly inhibitors; actives 2.3% (n = 200,000);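 also: plate controls were enzyme without inhibitor for no effect and buffer without enzyme for full effect; nearly all actives have a fitted effect of over 40% in size; top concentration of the series not given in the record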
Target sequence (P25779 123-467 limits assumed): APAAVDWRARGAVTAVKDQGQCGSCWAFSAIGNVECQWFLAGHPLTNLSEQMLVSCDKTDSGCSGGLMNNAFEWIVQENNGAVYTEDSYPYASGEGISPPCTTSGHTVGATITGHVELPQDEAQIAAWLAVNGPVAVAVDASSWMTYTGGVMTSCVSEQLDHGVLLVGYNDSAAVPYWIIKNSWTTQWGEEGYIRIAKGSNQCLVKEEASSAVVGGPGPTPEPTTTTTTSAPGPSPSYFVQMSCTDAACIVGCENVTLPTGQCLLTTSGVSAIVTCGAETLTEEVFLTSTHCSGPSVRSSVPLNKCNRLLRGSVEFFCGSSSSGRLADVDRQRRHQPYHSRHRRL
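Purified cruzain at 1.5 nM, pre-incubated 15 min with compound at room temperature in 100 mM sodium acetate pH 5.5, 5 mM DTT, 0.00005% Triton X-100. Reaction started with 2 uM Z-FR-AMC; AMC fluorescence increase over 60 s gives rate.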
RE007 growth inh = less growth of the S. pombe RE007 Vpr strain. S. pombe RE007 Vpr strain, BacTiter-Glo ATP luminescence, 24 h; control for the full effect not named in the record. Potency, µM (highest dose often 92.2 µM), for inactives: top-dose activity change, negative = less growth. actives 0.21% (n = 360,000); active = well fitted falling curve with a large enough effect; inconclusive = small, poorly fitted or top-dose-only effect; inactive = no such curve, though single readings can be large or run the other way;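 also: % is scaled to controls: 0 for no effect and ±100 for the full control effect; nearly all actives have a fitted effect of over 50% in size; the assay follows cell death caused by Vpr and the record does not say whether a fall means rescue or toxicity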
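Fission yeast RE007 carrying one integrated HIV-1 vpr copy, seeded at OD 0.01 in PMG+AL medium with 23 nL pinned compound. Grown 24 h at 30 degrees; viability read by BacTiter-Glo luminescence after 5 min.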
SARS PLP yeast = blocks SARS-CoV papain-like protease in a yeast assay | S. cerevisiae expressing SARS-CoV PLpro, growth rescue; control for the full effect not named in the record | actives 0.19% (n = 330,000) | Potency, µM (top dose mostly 32.9 µM), for inactives: at the highest dose activity, positive = growth rescue; active means well fitted rising curve with a large enough effect; inconclusive means small, poorly fitted or top-dose-only effect; inactive means no such curve, though single readings can be large or run the other way; also: 0% is about no effect; nearly all actives have a fitted effect of over 55% in size; growth read by luminescence after 48 h
Cruzain Triton = inhibitors of Trypanosoma cruzi cruzain with detergent; P25779; purified cruzain, Z-FR-AMC fluorescence, 0.01% Triton; AID 1478; Potency, µM, inactives show max response, negative = inhibition, actives largely listed as inhibitors; actives 0.43% (n = 200,000);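 also: plate controls were neutral wells for no effect and buffer without enzyme for full effect; nearly all actives have a fitted effect of over 40% in size; top concentration of the series not given in the record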
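Cysteine protease activity tested under reducing, mildly acidic conditions (100 mM sodium acetate pH 5.5, 5 mM DTT) plus 0.01% Triton X-100. Cruzain 1.5 nM; substrate Z-FR-AMC 2 uM; 15 min compound preincubation at room temperature.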
NS1 inh = inhibitors of influenza NS1 protein function; S. cerevisiae slowed by influenza A NS1, growth recovery by OD600; Potency, µM (series often up to 46.1 µM), without a hit: at the highest dose activity, positive = more growth; actives 0.4% (n = 270,000); AID 2326; active means well fitted rising curve with a large enough effect; inconclusive means small, poorly fitted or top-dose-only effect; inactive means no such curve, though single readings can be large or run the other way; also: nearly all actives have a fitted effect of over 50% in size
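OD600 was taken as the measure of yeast growth restored by compound in an NS1-expressing S. cerevisiae strain. Cells had been washed out of glucose medium and diluted 1:100 into galactose -URA medium, pH 6.0.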
Marburg entry inh = blocks Marburg virus binding to or entry into cells; actives 1.8% (n = 300,000); Marburg virus pseudotyped entry inhibition, cell reporter; control for the full effect not named in the record; about a third of the inactives were read at about 46 µM; Potency, µM (doses to about 37.8 µM), for inactives: at the highest dose activity change, negative = inhibition, hits mostly inhibitors; active = well fitted inhibition curve with a large enough effect; inconclusive = small, poorly fitted or top-dose-only effect, or effect the other way; inactive = flat fitted curve, though single readings scatter; tested in HEK293 cells; about a fifth of its hits are not listed in these tables; also: % is scaled to controls: 0 for no effect and ±100 for the full control effect; luciferase read-out
StopGo reporter = lowers the luciferase signal of an FMDV 2A StopGo reporter. human cells with a luciferase reporter of 2A StopGo recoding; control for the full effect not named in the record. Potency, µM (highest dose often 57.9 µM), without a hit: top-dose signal change, negative = less light. actives 1.2% (n = 410,000); active = well fitted falling curve with a large enough effect; inconclusive = small, poorly fitted or top-dose-only effect; inactive = no such curve, though single readings can be large or run the other way; tested in HEK293T cells; also: % is scaled to controls: 0 for no effect and ±100 for the full control effect; nearly all actives have a fitted effect of over 45% in size; luciferase light after 4 h
Active calls of the source: *; ? = inconclusive; . = no result given; & = joins results of further samples; [ ] = remark or other dose. Unless noted, calls follow the shape of the dose curve; as a rule, active = well fitted curve in the direction sought with a large enough effect; inconclusive = small, poorly fitted or top-dose-only effect, or another doubt; inactive = no such curve, though single readings can be large; an effect the other way counts as inactive or inconclusive. Potency is read from the fitted curve at half-maximal effect.

Structure,StopGo reporter,Marburg entry inh,Cruzain Triton,RE007 growth inh,LASV entry inh,Cruzain noTriton,NS1 inh,SARS PLP yeast
COc1ccc(C2NC(=O)c3n[nH]c(C)c32)c(OC)c1 (stereo not given),-17.0%,.,1.0%,9.2%,.,-3.3%,0.0%,-0.6%
NC(C(=O)N[C@@H]1C(=O)N2C(C(=O)O)=C(Cl)CS[C@H]12)c1ccccc1 (stereo not given in full),.,?,1.7%,.,-4.2%,-4.0%,19.8%,.
CC1(c2ccc(OCC(N)=O)cc2)NC(=O)NC1=O (stereo not given),-10.6%,?,.,0.4%,-4.9%[46.1 µM],.,8.3%,1.8%
O=C(NCc1ccccc1)C1(c2ccccc2)CCN(S(=O)(=O)c2ccccc2)CC1,?,-10.4%,-3.2%,-1.6%,?,-3.3%,-16.0%,-1.6%
COc1cc(/C=C(/C#N)C(=O)Nc2ccccc2)c(Br)cc1OCc1ccc(C(=O)O)cc1,9.0%,1.4%[46.1 µM],.,-1.9%,20.8%,.,2.3%,-0.7%
O=C(NCCN1CCOCC1)/C(=C/c1ccc(Cl)cc1)NC(=O)c1ccccc1,9.5%,-0.3%,.,8.9%,9.0%,.,-2.3%,0.6%
CCC(Sc1nc(N)c(NC(=O)c2ccc(Br)o2)c(=O)[nH]1)C(=O)O (stereo not given),-4.8%,2.0%,.,-22.8%,-9.0%,.,-8.8%,4.0%
CCOc1ccc(NC(=O)C2CCCN2C(=O)Oc2ccccc2)cc1 (stereo not given),0.0%,28.4%[46.1 µM],.,-9.1%,14.3%,.,1.0%,0.9%
CN(CCO)c1cc(N2CCC3(CC2)OCCO3)c2nonc2c1[N+](=O)[O-],-12.5%,?,-14.5%,2.6%,15.9%,-13.3%,13.3%,3.2%
CC(C)Oc1ccc(C2CC(=O)N(c3ccc(C(=O)O)cc3)C2=O)cc1 (stereo not given),0.5%,18.9%[46.1 µM],.,1.6%,24.6%[46.1 µM],.,1.6%,4.7%
Cc1nc2ccccc2nc(=O)c1NNc1ccc([N+](=O)[O-])cc1,-22.2%,-17.4%[46.1 µM],.,-6.4%,2.3%,.,3.0%,4.2%
Cc1nc(C/C(=N\N)c2ccc(O)cc2O)cs1,-2.2%,0.6%,.,-0.9%,10.0%,.,4.2%,-3.7%

Continuation:
Structure,StopGo reporter,Marburg entry inh,Cruzain Triton,RE007 growth inh,LASV entry inh,Cruzain noTriton,NS1 inh,SARS PLP yeast
N#Cc1c(-c2ccccc2)cc(-c2ccc(O)cc2)nc1N,-29.4%,.,.,2.9%,.,.,-18.7%,-4.2%
COc1cccc2sc3ccc(C#CC4(N)CCCCC4)cc3c(=O)c12,67.4%[activator],.,.,-8.1%,.,.,20.3%,-0.7%
Cn1c(=O)c2c(nc(Oc3ccccc3)n2Cc2c(Cl)cccc2Cl)n(C)c1=O,-6.1%,4.5%[46.1 µM],-1.6%,.,10.3%[46.1 µM],7.0%,.,.
Cc1ccc(NC(=O)COC(=O)CCn2c(C)csc2=O)c([N+](=O)[O-])c1,-10.5%,-4.1%[46.1 µM],.,-10.8%,15.8%,.,.,5.7%
NC(=O)CN1CCN(S(=O)(=O)c2ccc(Br)cc2)CC1,65.0%[activator],12.3%,.,-0.7%,12.3%,.,.,-2.3%
COc1ccc(OCC(=O)Nc2ccccc2C(=O)NC(C)C)cc1,-19.5%,-10.1%[46.1 µM],.,7.3%,?,.,-1.3%,0.3%
CCOc1ccc(C(=O)N2CCC(c3nc4ccccc4o3)CC2)cc1,-12.6%,-16.8%[46.1 µM],-3.3%,.,-5.3%[46.1 µM],-12.0%,.,.
O=C1c2cccc3cccc(c23)C(=O)N1Cc1ccccc1,-12.5%,.,.,-10.6%,.,.,1.1%,-0.9%
CCOC(=O)CC1=C(C(=O)OCC)C2(C(=O)N1)C(C(=O)OC)=C(N)Oc1ccccc12 (stereo not given),15.6%,-2.8%,5.1%,-2.8%,8.3%,12.6%,12.9%,3.9%
C=CCc1cccc(CNc2nc3ccccc3n2C)c1O,16.5%,.,.,-19.5%,.,.,-16.3%,1.1%
Cc1cccc(NC(=O)C(c2ccccc2Cl)N2CCOCC2)c1 (stereo not given),-7.5%,3.2%[46.1 µM],.,10.1%,18.2%,.,.,-1.1%
Cc1ccc(Cn2c(-c3nonc3N)nc3ccccc32)cc1,0.0%,-20.4%,-6.2%,0.1%,-8.9%,0.5%,3.4%,-0.6%

(continued)
Structure,StopGo reporter,Marburg entry inh,Cruzain Triton,RE007 growth inh,LASV entry inh,Cruzain noTriton,NS1 inh,SARS PLP yeast
CCn1c(C(=O)N2CCCC(C(=O)NCCCOC)C2)cc2sccc21 (stereo not given),-6.1%,10.6%[46.1 µM],-1.9%,.,.,-17.4%,.,.
Cc1ccc(S(=O)(=O)N2CCCSCC2)cc1,-5.8%,11.2%[46.1 µM],0.5%,8.8%,-2.2%,1.2%,-5.9%,-0.2%
CCOC(=O)C1=C(c2ccccc2)NC(SCC(N)=O)=C(C#N)C1c1cccnc1 (stereo not given),-2.8%,-7.0%,-1.8%,4.3%,-19.8%,9.9%,-1.4%,8.0%
CC(OCC(O)CN(C)Cc1nc2ccccc2c(=O)[nH]1)c1ccc(Cl)cc1 (stereo not given),-27.7%,.,.,-4.8%,.,.,3.3%,-5.5%
Cc1cccn2c(=O)c(/C=C(\C#N)S(=O)(=O)c3ccccc3)c(N3CCN(C)CC3)nc12,-14.9%,-4.3%&-4.3%&-4.3%[46.1 µM],-5.0%,-5.1%,3.0%,1.6%,-5.6%,0.6%
COC(=O)CSc1nnc(-c2ccc(S(=O)(=O)NCc3cccs3)cc2)o1,-6.9%,-3.4%,-3.6%,-3.9%,-16.7%,10.5%,-10.4%,0.0%
O=C1c2cccc3cccc(c23)C(=O)N1CCCc1n[nH]c(=S)n1-c1ccccc1,-22.3%,1.0%[46.1 µM],.,1.1%,-12.5%,.,10.6%,0.2%
O=C(CN1C(=O)NC2(CCCC2)C1=O)NCCc1ccc(F)cc1,-10.6%,0.6%,.,-4.7%,-8.9%,.,.,3.7%
O=C(CN(C(=O)CCC(=O)Nc1ccccn1)c1ccc2c(c1)OCO2)NCc1ccco1,-0.7%,-11.6%&-11.6%[46.1 µM],3.1%,-2.4%,3.3%,-0.3%,7.9%,1.6%
CCn1c(SCC(=O)Nc2cc(C)on2)nnc1-c1ccncc1,12.1%,17.5%,5.4%,-7.2%,?,-4.1%,?,5.0%
Nc1ccc(C(=O)Nc2ccc3nc(-c4cccnc4)[nH]c3c2)cc1,10.4%,-22.0%,-2.6%,18.2%,5.0%,-10.1%,15.5%,-10.4%
Cn1c(=O)c2cc(S(=O)(=O)NCCC(=O)Nc3ccc(Cl)cc3)ccc2n(C)c1=O,-10.1%,2.2%,14.0%,8.3%,15.4%[14.3 µM],-13.7%,-7.0%,5.9%

Further results follow.
Structure,StopGo reporter,Marburg entry inh,Cruzain Triton,RE007 growth inh,LASV entry inh,Cruzain noTriton,NS1 inh,SARS PLP yeast
COc1ccc(C)cc1NC(=O)C1CCCCC1C(=O)O (stereo not given),-6.0%,10.6%,1.8%,10.3%,-13.5%,0.1%,0.3%,4.2%
CC(C)(C)c1ccc(C(=O)Nn2c(CCC(=O)O)ccc2-c2cccs2)cc1,2.3%,-1.3%,-5.8%,13.1%,-0.5%,1.3%,?,1.1%
COc1ccc(C2CC(c3ccc4ccccc4c3)=NN2C(=O)CN2CCC(C(N)=O)CC2)cc1 (stereo not given),0.0%,1.2%,.,-11.7%,2.2%,.,.,2.2%
COC(=O)c1ccc(N2C(=O)C3CC(C)=C(C)CC3C2=O)cc1 (stereo not given),-1.8%,-11.3%[46.1 µM],.,2.7%,?,.,.,1.7%
CCN1c2ccccc2-c2nc(SCC(=O)Nc3cc(C)c(Cl)cc3OC)ncc2S1(=O)=O,-7.9%,.,-3.1%,.,-18.1%[46.1 µM],25.1µM*,.,.
CC12CCC(C(=O)N3CCC(Cc4ccccc4)CC3)(C(=O)C1=O)C2(C)C (stereo not given),-21.9%,?,.,13.1%,?,.,.,-1.1%
N/C(=N\OC(=O)c1cccc(Cn2cc(C(F)(F)F)ccc2=O)c1)c1ccc(Cl)cc1,?,-26.1%[46.1 µM],.,0.5%,-18.8%,.,-31.5%,-3.7%
CC(C)[C@H](NC(=O)c1ccccc1)C(=O)OCC(=O)N1CCN(C(=O)c2ccco2)CC1,-11.5%,?,.,7.1%,26.9%,.,-1.1%,-0.5%
CN(C)CCCn1c2c(c(SCC(=O)Nc3nccs3)nc1=O)CCC2,?,-33.8%,.,-15.0%,-11.0%[46.1 µM],.,.,0.3%
CCN(CC)S(=O)(=O)c1cccc(NC(=O)c2cncc(Br)c2)c1,-5.6%,.,.,-16.4%,.,.,-6.6%,0.0%
CCOc1ccc(NC2=CC(=O)CCC2)cc1,3.4%,28.7%[46.1 µM],.,8.5%,?,.,10.1%,-0.4%
COc1cccc(NC(=O)C2CCN(S(=O)(=O)c3ccccc3)CC2)c1,?,.,.,1.0%,.,.,4.0%,2.5%

Further compounds.
Structure,StopGo reporter,Marburg entry inh,Cruzain Triton,RE007 growth inh,LASV entry inh,Cruzain noTriton,NS1 inh,SARS PLP yeast
CCOC(=O)C1=C(COC(=O)/C=C/c2cccc(Cl)c2)NC(=O)NC1C (stereo not given),14.9%,15.3%,.,18.2%,-1.2%,.,.,3.4%
Cc1ccc(CNCc2ccco2)cc1,7.4%,.,.,-15.6%,.,.,1.6%,3.8%
COc1cccc2sc(NNC(=O)COc3ccccc3)nc12,-15.5%,1.6%,.,1.0%,0.6%,.,5.7%,0.1%
Cc1cccc(NC(=O)c2ccc(S(=O)(=O)N(C)c3ccccc3)cc2)n1,?,?,.,8.7%,?,.,.,4.0%
CCOC(=O)C1CCN(C(=O)c2ccc(N3CCCC3=O)cc2)CC1,3.8%,5.8%,.,1.2%,-0.2%,.,.,1.7%
Cn1cc(C(=O)N2CCN(C(=O)c3ccco3)CC2)c2c3ccccc3n(C)c2c1=O,21.0%,?,-2.6%,9.8%,1.7%,4.0%,3.98µM*,1.0%

Screens from PubChem BioAssay.
